NPYLR7 ag – agonists of mosquito NPYLR7 receptor, primary screen, cell-based, Aedes aegypti, calcium fluorescence, mosquito biting behavior; 270,000 compounds, 0.15% hits; activation, % at 10 µM; HEK293T NPYLR7/Galpha15, GCaMP6s calcium fluorescence; in the data active = activation above about 40%;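 also: 0% = vehicle and 100% = reference agonist at the receptor; some compounds past the cut are filed as inactive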
NPYLR7 ag max-min – further read-out of NPYLR7 ag, marked with its call; activation, %; measured here: Max-Min RFU normalised activation; some inactives read as strong as hits;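 span of the calcium signal over five minutes; 0% = vehicle and 100% = native peptide agonist; compound fluorescence can raise it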
The depositor's hits bear a star; & = joins results of further samples. An excerpt; count on the stated rates, not on these rows.

SMILES | NPYLR7 ag | NPYLR7 ag max-min
CCOc1ncccc1-c1ccc2ncsc2c1 | 24.4 | 19.5
COc1cc(C)c(S(=O)(=O)NCCn2nc(-c3ccc(F)cc3)ccc2=O)cc1C | -5.5 | -6.0
CN1CCN(C(=O)c2cc3nc(-c4ccc(Cl)cc4)cc(C(F)(F)F)n3n2)CC1 | -6.4 | -9.6
CCOCC(=O)N1CCN(C(=O)c2cn(C)cc3c(=O)n(-c4ccccc4)nc2-3)CC1 | 2.7 | 1.3
CCn1nc(C(C)(C)C)cc1C(=O)N1CCC2(CCCCC2)C1 | 1.9 | 3.7
CN(C)CCCN(C(=O)c1ccno1)c1nc2ccc(F)cc2s1 | 2.2 | -1.8
c1ccc(Cn2nnnc2CN2CCc3onc(-c4ccccc4)c3C2)cc1 | 20.5 | 7.2
S=C(S)N1CCCC1 | -9.2&0.8 | -14.3&14.8
CCOC(=O)c1c(NC(=O)C(C)C)sc(C)c1C | -8.1 | -7.8
Cc1ccc(NC(=O)c2nnn(Cc3ccccc3C)c2N)c(C)c1 | -0.5 | 4.9
O=C(NCc1ccccc1F)c1cccc(OC(F)F)c1 | 4.2 | 5.5
Cc1nc(Cc2ccc(-n3ccnc3-c3nccn3C)cc2)n[nH]1 | 1.0 | 2.4
O[C@@H]1CN(CCCC2CCCC2)CC[C@H]1c1ccc2c(c1)OCO2 | 10.7 | 6.7
CCCn1nc(Oc2nc(NCC)nc(NC(C)C)n2)ccc1=O | -0.2 | -0.4
CNc1nc(-c2cc(Cl)ccc2Cl)cs1 | 0.9 | -2.0
Cc1onc(-c2ccccc2)c1C(=O)NC1CCCCC1C (stereo not drawn) | -2.4 | -2.9
CC1CN(S(=O)(=O)c2ccc(S(=O)(=O)C(F)F)cc2)C(C)CO1 (stereo not drawn) | 0.9 | -0.8
O=C1CCC(NC(=O)NCCc2csc(-c3ccccc3)n2)CN1 (stereo not drawn) | 1.5 | 235.3
COCCNC(=O)[C@H]1C[C@@H](O)[C@H](O)[C@@H]2N=C(Nc3ccc(C(C)C)cc3)S[C@@H]21 | -12.7 | -18.3
CC(=O)Oc1c(-c2ccc(N)cc2)c(-c2ccc(N(C)C)cc2)nn1-c1ccc(C)cc1 | -9.7 | -9.1
CCCCc1nc(Cn2cncn2)no1 | 16.4 | 11.8
CC1CCCN(C(=O)Nc2cccc(S(=O)(=O)C(F)F)c2)C1 (stereo not drawn) | 7.6 | 4.8
Cc1nc(Cc2nc(-c3ccc(N4CCCC4=O)cc3)cs2)cs1 | -4.8 | -6.4
c1ccc(C2=C(c3ccccc3)N3CCN=C3S2)cc1 | -4.5 | -4.3
CCc1nc2n(n1)C(=O)C(C(c1ccc(F)cc1)N1CCCC1)S2 (stereo not drawn) | -0.7 | 2.2
COc1ccccc1Oc1cc(N2CCN(C(=O)c3ccc(Cl)cc3Cl)C(C)C2)ncn1 (stereo not drawn) | 3.4 | 2.2
CCOc1ccc(-c2cc(=O)n(CC(=O)NC(C)c3ccccc3)cn2)cc1 (stereo not drawn) | 10.0 | 1.3
CCn1c(C)csc1=Nc1ccc(Cl)cc1 | 3.5 | 2.8
CCc1ccc(C(NC(=O)Cn2ccc(=O)[nH]c2=O)C(C)(C)C)o1 (stereo not drawn) | 5.7 | 3.7
CCc1ccc(-c2cn3c(C(=O)N4CC=CC4CO)csc3n2)cc1 (stereo not drawn) | 16.0 | 1.8

Some of the entries so far, comma-delimited.
structure,NPYLR7 ag,NPYLR7 ag max-min
COCCNC(=O)[C@H]1C[C@@H](O)[C@H](O)[C@@H]2N=C(Nc3ccc(C(C)C)cc3)S[C@@H]21,-12.7,-18.3
CC(=O)Oc1c(-c2ccc(N)cc2)c(-c2ccc(N(C)C)cc2)nn1-c1ccc(C)cc1,-9.7,-9.1
CCCCc1nc(Cn2cncn2)no1,16.4,11.8

Returning to the listing with the seven entries that preceded the break.
SMILES | NPYLR7 ag | NPYLR7 ag max-min
c1ccc(C2=C(c3ccccc3)N3CCN=C3S2)cc1 | -4.5 | -4.3
CCc1nc2n(n1)C(=O)C(C(c1ccc(F)cc1)N1CCCC1)S2 (stereo not drawn) | -0.7 | 2.2
COc1ccccc1Oc1cc(N2CCN(C(=O)c3ccc(Cl)cc3Cl)C(C)C2)ncn1 (stereo not drawn) | 3.4 | 2.2
CCOc1ccc(-c2cc(=O)n(CC(=O)NC(C)c3ccccc3)cn2)cc1 (stereo not drawn) | 10.0 | 1.3
CCn1c(C)csc1=Nc1ccc(Cl)cc1 | 3.5 | 2.8
CCc1ccc(C(NC(=O)Cn2ccc(=O)[nH]c2=O)C(C)(C)C)o1 (stereo not drawn) | 5.7 | 3.7
CCc1ccc(-c2cn3c(C(=O)N4CC=CC4CO)csc3n2)cc1 (stereo not drawn) | 16.0 | 1.8
O=C(Cc1cccc(C(F)(F)F)c1)CC1Nc2ccccc2NC1=O (stereo not drawn) | 1.6 | -5.9
O=C1COc2ccc(C(=O)C=Cc3cccc(Cl)c3Cl)cc2N1 | -3.3 | -6.1
COc1cc(OC)c(OC)cc1/C=C1\N=C(c2ccccc2)OC1=O | -2.7 | -4.4
CC1(C)Cc2nc(-c3ccccc3)nc(SCC(=O)O)c2CO1 | -12.9 | -16.6
COC(C)(C)CC(C)NCCC(=O)N1CCC(C)CC1 (stereo not drawn) | 11.3 | 0.2
CC1(C)C2CCC1(C)C(Nc1ncnc3sccc13)C2 (stereo not drawn) | 6.4 | 3.2
C=CCN(Cc1ccc(F)cc1)C(=O)c1sccc1C | -6.0 | -9.8
N=C(N)Sc1cn(Cc2ccccc2)c2ccccc12 | -11.0 | -15.3
CC(=O)NC(Cc1nc(C(C)n2ccnc2)no1)c1ccc(C)cc1 (stereo not drawn) | 1.7 | -3.7
O=C(Cc1ccc(F)c(F)c1)NS(=O)(=O)N1CCc2ccccc21 | 0.7 | 85.1
CCn1c(C2CCN(S(=O)(=O)N3CCN(C)CC3)CC2)nn(C)c1=O | 2.1 | 0.0
C(=C\c1ccccc1)/CN1CCC(n2cc(-c3ccsc3)nn2)CC1 | 18.0 | 11.5
O=C(COc1coc(CN2CCN(c3ccc(F)cc3)CC2)cc1=O)NCc1ccco1 | -1.1 | -1.6
CCN(CC)c1ccc(C2C(C#N)=C(C)NC3=C2C(=O)CC(c2ccccc2)C3)cc1 (stereo not drawn) | 8.4 | 6.2
CCC(=O)N1CCCC(NS(=O)(=O)c2cccc(F)c2)C1 (stereo not drawn) | 8.4 | 1.8
CCCCCCCCc1ccc(-c2ccc(NC(=O)c3c(-c4ccccc4Cl)noc3C)cc2)cc1 | -4.3 | -13.6
Cc1noc(C)c1C(=O)N1CCCC(N2CCN(c3cccc(C(F)(F)F)c3)CC2)C1 (stereo not drawn) | 14.1&2.3 | 4.7&-2.1
O=C(c1ccc(CS(=O)(=O)c2ncccc2Cl)cc1)N1CCCC1 | -6.0 | -4.2
Cn1c(CN2CCCC2c2ccccc2C(F)(F)F)nnc1C1CC1 (stereo not drawn) | 0.4 | 0.9
O=C(CSc1ccccc1)N1CC(=O)N2CCc3c(F)cccc3C2C1 (stereo not drawn) | 26.1 | 17.5
Cc1ccc(C(=O)N2CCC3(CC2)CC(=O)c2ccc(N4CCCC4)cc2O3)s1 | -3.5 | 7.6
O=C(c1ccco1)N1CCN(c2nccc(-c3ccco3)n2)CC1 | 13.4 | 17.3
COc1ccc(OC2C(=O)N(c3ccccc3Cl)C2c2ccc(OC)c(OC)c2)cc1 (stereo not drawn) | -5.9 | 22.5
CCOC(=O)C1CCCN(C(=O)c2c(C)nn(-c3ccccc3)c2-c2ccccc2)C1 (stereo not drawn) | 22.7 | 28.8
NCc1ccc(-c2ccc(Cl)cc2)cc1F | 3.8 | 2.6
Cc1c(C(=O)NCc2cccc(C(F)(F)F)c2)cc(-c2ccccc2)n1-c1ccc(F)cc1 | -4.4 | 9.1
Cc1cccc(C2c3cccn3-c3ccccc3N2C(=O)CN(C(=O)COCc2ccccc2)C2CC2)c1 (stereo not drawn) | -8.7 | 2.0
Cn1nc(N2CCN(S(=O)(=O)c3ccc4c(c3)OCCO4)CC2)c(=O)n(C)c1=O | -0.1 | -1.2
CCOC(=O)C1(Cc2ccc(OC)cc2)CCN(C(=O)c2cc3ccccc3[nH]2)CC1 | 10.2 | 7.3
CCOC(=O)c1c(C)n(CC)c2ccc(OC)cc12 | -9.2 | -17.2
CS(=O)(=O)N1CCc2cc(C(=O)CSc3nnc(C4CC4)n3C3CC3)ccc21 | -0.8 | -1.8
O=C(NCc1ccccc1)c1cccc(OC2CCN(C3CCCCC3)CC2)c1 | 4.3 | 3.7
Cc1ccc(-c2ccc(CCC(=O)NCc3ccc(C)o3)n2-c2ccc(CC#N)cc2)c(C)c1 | -4.4 | -0.5
CN(C)CCCNc1nc(Nc2ccc(Cl)cc2)c2nccnc2n1 | 4.3 | 6.6
Cc1nc2c(c(=O)n1C)CCN(C(=O)CN1CCC(c3ccccc3)C1)CC2 (stereo not drawn) | 0.6 | -2.6
CC(C)c1ccc(CCC(=O)N(C)C2CCCCC2S(C)(=O)=O)cc1 (stereo not drawn) | -2.5 | 24.0
COc1ccccc1CCNC(=O)C(C1CCCC1)N1CCN(C(=O)c2cccc(Br)c2)CC1 (stereo not drawn) | 7.8 | 4.4
CCCNC(=O)CN1CCN(c2ncnc3sc4c(c23)CCCC4)CC1 | 7.8 | 5.5
CCCC(O)CN(Cc1ccccc1)Cc1ccco1 (stereo not drawn) | 20.1 | 20.8
Cc1ccc2c(c1)nc(-n1nc(C)cc1C)c1nncn12 | 2.8 | 0.2
CS(=O)(=O)c1cccc(C(=O)NCC2(O)CCNC2)c1 (stereo not drawn) | 4.1 | 3.3
CC1=C(Cn2nnc(C(=O)O)c2C)NC(c2ccc(C)cc2)O1 (stereo not drawn) | 1.7 | -2.6
O=S(=O)(NCCc1ccccn1)N1CCc2ccccc2C1 | 4.9 | -1.0
CC(C)(CNC(=O)N1CCN(c2ncccn2)CC1)c1ccccc1F | -1.5 | -2.9
CCOC(=O)c1c(NC(=O)C2CC2)c(-c2ccc3c(c2)OCO3)cn1C | 22.1 | 17.3

Profiles, looked up by structure. Order of screens: NPYLR7 ag, NPYLR7 ag max-min
COCCNC(=O)[C@H]1C[C@@H](O)[C@H](O)[C@@H]2N=C(Nc3ccc(C(C)C)cc3)S[C@@H]21 is listed with -12.7, -18.3
O=C(NCc1ccccc1F)c1cccc(OC(F)F)c1 is listed with 4.2, 5.5

Following part.
SMILES | NPYLR7 ag | NPYLR7 ag max-min
COc1cc(C#N)ccc1OCc1cc2c(cc1Br)OCCO2 | -2.4 | -4.4
CCn1c(SCC(=O)NC(C)(C)C)nc2c([nH]c3ccccc32)c1=O | -5.9 | -5.0
COCCN(Cc1cccc(OC)c1)Cc1cccn1Cc1ccc(F)cc1 | 7.0 | 20.8
CNS(=O)(=O)c1ccc(C2CC(=O)NCc3nc4ccccn4c32)cc1 (stereo not drawn) | 14.8 | 2.8
O=C(O)[C@@H]1CSC(c2coc3ccccc3c2=O)N1 (stereo partly drawn) | -4.3 | -8.4
CC(C)(C)NC(=O)N1CCn2cccc2C1c1ccc(F)cc1 (stereo not drawn) | 8.4 | 8.4
c1csc(-c2cnc3ccc(-c4ccoc4)nn23)c1 | -4.1 | -10.6
CCCN(CC(=O)N(CCOC)Cc1cccn1C)C(=O)c1ccc(C)cc1 | -2.6 | 7.5
O=C1CCCN1CC1CCCCN1Cc1csc(COc2ccccc2)n1 (stereo not drawn) | 3.7 | 0.9
COc1ccccc1C(=O)NC(C)C(c1cccs1)N1CCN(Cc2ccccc2)CC1 (stereo not drawn) | -0.7 | 0.9
Cc1c(Cl)c([N+](=O)[O-])nn1CC(=O)NC1=C(C#N)CCC1 | -19.3 | -25.1
CC1(c2ccc3c(c2)OCO3)NC(=O)N(C/C=C/c2ccccc2)C1=O (stereo not drawn) | 1.0 | -9.7
Cc1ccc(-c2noc(CCN(Cc3ccco3)CC(C)(C)O)n2)cc1 | 4.5 | 1.5
O=C(Cc1cccnc1)NC1CC(=O)N(Cc2cccc3ccccc23)C1 (stereo not drawn) | 3.6 | -1.5
O=C(CS(=O)(=O)C1CCCC1)Nc1ccc2nc(C3CCCCC3)[nH]c2c1 | -1.0 | -0.5
FC(F)(F)c1cc(-c2ccccc2)nc2[nH]c3ccccc3c12 | -0.4 | 3.2
Cc1ccc(C(=O)N2CCn3c(C)ccc3C2C)cc1 (stereo not drawn) | 12.4 | 37.5
Cc1ccc(N=Nc2c(-c3ccccc3)[nH]n(-c3ccccc3)c2=O)cc1Br | -3.3 | -6.9
CCC(C)N(Cc1cc(NC(=O)COC)ccc1N(C)C)S(C)(=O)=O (stereo not drawn) | -0.6 | 7.5
Cc1ccc(OCC(=O)NNC(=O)C2COc3ccccc3O2)cc1 (stereo not drawn) | -5.1 | -8.8
O=C(Nc1ccc(Br)cc1)NC(Cc1ccccc1)C(=O)Nc1nnc(-c2ccc3c(c2)OCO3)s1 (stereo not drawn) | 1.0 | 9.9
COc1cc(Cl)ccc1C(=O)N1CCN(Cc2n[nH]c(C)n2)CC1 | -0.5 | -12.9
O=c1c(-c2ccc(Oc3ccccc3)cc2)[n+]([O-])c2ccccc2n1OCc1ccccn1 | -13.7 | -17.5
CN(CC(=O)NC1CCCCCC1)S(=O)(=O)c1ccc(F)cc1 | -6.2 | -8.8
Cc1cc2nc(NC(=O)C3(C)CCN(C)C3)[nH]c2cc1C (stereo not drawn) | -1.6 | -1.7
Cc1cc(NC(=O)/C=C/c2ccccc2OC(F)F)n(CCC#N)n1 | 11.1 | 10.6
CC1CN(CCCNC(=O)N(C)Cc2csc(Br)c2)CC(C)O1 (stereo not drawn) | 3.4 | 2.0

As entered above:
NPYLR7 ag with CNc1nc(-c2cc(Cl)ccc2Cl)cs1 : 0.9
NPYLR7 ag with COc1cc(OC)c(OC)cc1/C=C1\N=C(c2ccccc2)OC1=O : -2.7
NPYLR7 ag max-min with CC(C)c1ccc(CCC(=O)N(C)C2CCCCC2S(C)(=O)=O)cc1 (stereo not drawn) : 24.0
